LASV entry inh: blocks Lassa virus binding to or entry into cells; AID 540256; Lassa virus pseudotype entry inhibition, cell reporter; control for the full effect not named in the record; 300,000 compounds, 1.2% hits; Potency, µM (titrated, usually from 37.9 µM), inactives show top-dose activity change, negative = inhibition, usual class: inhibitors; active means well fitted inhibition curve with a large enough effect; inconclusive means small, poorly fitted or top-dose-only effect, or effect the other way; inactive means flat fitted curve, though single readings scatter; tested in HEK293 cells; also: % is scaled to controls: 0 for no effect and ±100 for the full control effect; nearly all actives have a fitted effect of over 50% in size; luciferase read-out
Marburg entry inh: Marburg virus entry inhibition | Marburg virus pseudotyped entry inhibition, cell reporter; control for the full effect not named in the record; about a third of the inactives were read at about 46 µM | Potency, µM (titrated, usually from 37.8 µM), for the others: top-dose activity change, negative = inhibition, hits mostly inhibitors | 300,000 compounds, 1.8% hits | AID 540276; active = well fitted inhibition curve with a large enough effect; inconclusive = small, poorly fitted or top-dose-only effect, or effect the other way; inactive = flat fitted curve, though single readings scatter; tested in HEK293 cells; about a fifth of its hits are not listed in these tables; also: % is scaled to controls: 0 for no effect and ±100 for the full control effect; luciferase read-out
NS1 inh: blocks influenza NS1 protein function; S. cerevisiae slowed by influenza A NS1, growth recovery by OD600; Potency, µM (doses to about 46.1 µM), inactives show at the highest dose activity, positive = more growth; 270,000 compounds, 0.4% hits; AID 2326; also: actives are rising curves; nearly all actives have a fitted effect of over 50% in size
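Growth recovery, yeast-based: influenza A NS1 expressed in S. cerevisiae causes slow growth, and suppressors are detected by OD600. The parent strain without NS1 is used as positive control.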
RE007 growth inh: less growth of the S. pombe RE007 Vpr strain; S. pombe RE007 Vpr strain, BacTiter-Glo ATP luminescence, 24 h; control for the full effect not named in the record; Potency, µM (series often up to 92.2 µM), inactives show at the highest dose activity change, negative = less growth; 360,000 compounds, 0.21% hits; AID 651644; active = well fitted falling curve with a large enough effect; inconclusive = small, poorly fitted or top-dose-only effect; inactive = no such curve, though single readings can be large or run the other way;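 also: % is scaled to controls: 0 for no effect and ±100 for the full control effect; nearly all actives have a fitted effect of over 50% in size; the assay follows cell death caused by Vpr and the record does not say whether a fall means rescue or toxicity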
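Fission yeast strain RE007, carrying one chromosomally integrated HIV-1 vpr copy, was seeded at OD 0.01 in PMG+AL medium with 23 nL pinned compound. After 24 h at 30 °C and 99% humidity, viability was read by BacTiter-Glo luminescence.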
SARS PLpro yeast: blocks SARS-CoV papain-like protease in a yeast assay; Potency, µM (series often up to 32.9 µM), inactives show at the top dose activity, positive = growth rescue; AID 485353; 330,000 compounds, 0.19% hits; S. cerevisiae expressing SARS-CoV PLpro, growth rescue; control for the full effect not named in the record; also: 0% is about no effect; nearly all actives have a fitted effect of over 55% in size; growth read by luminescence after 48 h
StopGo reporter: FMDV 2A StopGo reporter, luciferase signal | human cells with a luciferase reporter of 2A StopGo recoding; control for the full effect not named in the record | Potency, µM (series often up to 57.9 µM), for inactives: at the highest dose signal change, negative = less light | 410,000 compounds, 1.2% hits; active = well fitted falling curve with a large enough effect; inconclusive = small, poorly fitted or top-dose-only effect; inactive = no such curve, though single readings can be large or run the other way; tested in HEK293T cells; also: % is scaled to controls: 0 for no effect and ±100 for the full control effect; nearly all actives have a fitted effect of over 45% in size; luciferase light after 4 h
Cruzain Triton: inhibitors of Trypanosoma cruzi cruzain with detergent | AID 1478 | Potency, µM, inactives show max response, negative = inhibition, most hits filed as inhibitors | 200,000 compounds, 0.43% hits | purified cruzain, Z-FR-AMC fluorescence, 0.01% Triton | P25779; active = well fitted curve in the direction sought with a large enough effect; inconclusive = small, poorly fitted or top-dose-only effect, or another doubt; inactive = no such curve, though single readings can be large; an effect the other way counts as inactive or inconclusive;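 also: plate controls were neutral wells for no effect and buffer without enzyme for full effect; nearly all actives have a fitted effect of over 40% in size; top concentration of the series not given in the record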
Target sequence (P25779 123-467 limits assumed): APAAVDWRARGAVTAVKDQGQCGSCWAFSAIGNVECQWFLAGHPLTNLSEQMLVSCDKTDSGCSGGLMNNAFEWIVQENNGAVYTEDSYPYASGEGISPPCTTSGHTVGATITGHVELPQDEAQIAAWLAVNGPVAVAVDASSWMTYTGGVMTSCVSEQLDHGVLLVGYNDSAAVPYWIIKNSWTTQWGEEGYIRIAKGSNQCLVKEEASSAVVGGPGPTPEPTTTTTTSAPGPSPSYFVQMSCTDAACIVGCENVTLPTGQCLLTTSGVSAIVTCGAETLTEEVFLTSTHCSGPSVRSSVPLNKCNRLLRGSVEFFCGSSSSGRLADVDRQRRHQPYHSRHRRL
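Detergent-containing arm of a paired screen for aggregation-based inhibition: 0.01% Triton X-100 present. Cruzain at 1.5 nM cleaved 2 uM Z-FR-AMC at pH 5.5 with 5 mM DTT; AMC fluorescence gain over 60 s measured activity.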
Cruzain noTriton: cruzain (T. cruzi) inhibition without detergent. P25779. purified cruzain, Z-FR-AMC fluorescence, no detergent. Potency, µM, without a hit: max response, negative = inhibition, usual class: inhibitors. 200,000 compounds, 2.3% hits. AID 1476; active = well fitted curve in the direction sought with a large enough effect; inconclusive = small, poorly fitted or top-dose-only effect, or another doubt; inactive = no such curve, though single readings can be large; an effect the other way counts as inactive or inconclusive;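 also: plate controls were enzyme without inhibitor for no effect and buffer without enzyme for full effect; nearly all actives have a fitted effect of over 40% in size; top concentration of the series not given in the record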
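Detergent-free condition (0.00005% Triton X-100) in acetate buffer pH 5.5 with DTT. 1.5 nM enzyme and compound were pre-mixed 15 min, then 2 uM Z-FR-AMC substrate added; reaction progress from fluorescence change between first and third reads (60 s).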
Numbers without * were called inactive; u = inconclusive; x = not tested or not shown; & = joins results of further samples; [ ] = remark or other dose. Unless noted, calls follow the shape of the dose curve; as a rule, active means well fitted rising curve with a large enough effect; inconclusive means small, poorly fitted or top-dose-only effect; inactive means no such curve, though single readings can be large or run the other way. Potency is read from the fitted curve at half-maximal effect.

The line under a structure holds: LASV entry inh	Marburg entry inh	NS1 inh	RE007 growth inh	SARS PLpro yeast	StopGo reporter	Cruzain Triton	Cruzain noTriton
- Cc1cc(SC(C)C(=O)O)nc2ccccc12 (stereo not given)
    -14.7%	8.7%	-1.5%	12.5%	0.4%	-5.0%	x	x
- Cc1cc(F)ccc1NC(=O)c1cc(S(=O)(=O)N2CCc3ccccc32)cn1C
    x	x	10.8%	-2.2%	0.5%	-6.5%	x	x
- CC(C)c1ccc(N=Cc2c(O)n(C3CC3)c(=S)[nH]c2=O)cc1
    11.0%	23.2%	-2.8%	-7.2%	1.0%	30.4%[activator]	x	x
- CC(C)c1nnc(NC(=O)c2cc3ccccc3o2)s1
    -15.0%[46.1 µM]	41.6%[46.1 µM]	0.0%	-10.0%	-1.5%	47.8%[activator]	x	x
- CCOC(=O)Nc1ccc2c(c1)N(C(=O)OCCN(C)C)c1ccccc1CC2
    -12.8%	u	-1.8%&5.1%	11.2%&-5.4%	-2.9%&-0.3%	1.8%&-5.6%	-1.1%	3.5%
- COc1ccccc1CNC(=O)C1CCCN(S(=O)(=O)c2cccc3cccnc23)C1 (stereo not given)
    x	-0.7%	-4.0%	5.3%	-1.6%	11.5%	-7.4%	-4.1%
- CCc1nn(CC(=O)NCCCc2ccccc2)c(=O)c2cc3ccccc3n12
    x	u	x	x	x	-6.1%	-0.8%	-1.2%
- COc1cccc(C(=O)NCC2(c3ccccc3)CCCC2)c1OC
    x	x	-34.0%	-5.5%	0.4%	u	x	x
- S=c1[nH]nc(Cc2ccc(Cl)cc2)o1
    -3.7%	2.0%[46.1 µM]	-49.8%	-7.0%	-4.8%	-9.6%	x	x
- CC(=O)Oc1ccccc1C(=O)OCCN=C1NS(=O)(=O)c2ccccc21
    0.4%	-2.7%[46.1 µM]	14.1%	23.9%	0.6%	53.8%[activator]	x	x

Single records (already shown). Values in the order: LASV entry inh, Marburg entry inh, NS1 inh, RE007 growth inh, SARS PLpro yeast, StopGo reporter, Cruzain Triton, Cruzain noTriton
CC(C)c1ccc(N=Cc2c(O)n(C3CC3)c(=S)[nH]c2=O)cc1 is listed with 11.0%, 23.2%, -2.8%, -7.2%, 1.0%, 30.4%[activator], x, x
CCOC(=O)Nc1ccc2c(c1)N(C(=O)OCCN(C)C)c1ccccc1CC2 is listed with -12.8%, u, -1.8%&5.1%, 11.2%&-5.4%, -2.9%&-0.3%, 1.8%&-5.6%, -1.1%, 3.5%

(next part)
The line under a structure holds: LASV entry inh	Marburg entry inh	NS1 inh	RE007 growth inh	SARS PLpro yeast	StopGo reporter	Cruzain Triton	Cruzain noTriton
- CCOc1ccc(N(CC(=O)OC)S(=O)(=O)c2ccc3c(c2)n(C)c(=O)c(=O)n3C)cc1
    u	x	-3.8%	-6.9%	-1.0%	-18.7%&-14.5%	-0.3%&0.4%	-4.8%&0.4%
- O=C(Nc1ccc(Cl)c(-c2nc3ccccc3[nH]2)c1)c1cccnc1
    9.6%[14.3 µM]	u	3.9%	-1.6%	-3.9%	u	1.3%	-21.3%
- CN(C)S(=O)(=O)c1ccc2c(c1)C(=NNC(N)=O)c1cc(S(=O)(=O)N(C)C)ccc1-2
    x	x	0.5%	-12.6%	-2.6%	-8.8%	x	x
- Cc1ccc(NC(=O)COc2ccc(/C=C3/NC(=O)NC3=O)cc2)cc1
    u	-1.1%[46.1 µM]	-9.3%	4.6%	-4.2%	-5.5%	x	x
- COc1ccc(OC)c(S(=O)(=O)N2CCC(C(=O)Nc3cccc(C(F)(F)F)c3)CC2)c1
    -29.7%	u	17.1%	17.4%	3.5%	25.1µM*	-1.4%	29.0%
- Cc1ccc(CN2CCC(c3nc4ccc(Cl)cc4[nH]3)CC2)cc1
    u	4.11µM*	-0.5%	-7.2%	0.9%	x	-0.3%	-7.4%
- O=C(NCCCn1ccnc1)c1ccc(Cl)c(S(=O)(=O)N2CCOCC2)c1
    6.6%	-24.5%	-0.9%	2.3%	-2.9%	x	1.1%	-5.7%
- O=C(c1cccc(S(=O)(=O)N2CCCC2)c1)N1CCN(c2ccccc2)CC1
    47.5%[14.3 µM]	u	-15.2%	-13.5%	-1.9%	-5.9%	1.1%	9.5%
- COc1ccccc1CNC(=O)[C@H](CCSC)NC(=O)[C@@H]1Cc2ccccc2CN1
    x	x	17.7%	-4.3%	-14.6%	-21.9%	x	x
- Cc1cc(F)ccc1S(=O)(=O)Nc1c(C)n(C)n(-c2ccccc2)c1=O
    x	x	-13.8%	5.1%	5.3%	-9.5%	7.9%	0.0%

The line under a structure holds: LASV entry inh	Marburg entry inh	NS1 inh	RE007 growth inh	SARS PLpro yeast	StopGo reporter	Cruzain Triton	Cruzain noTriton
- COCc1cc(CN2CCCC(C(=O)Nc3ccc(-c4ccco4)cc3)C2)ccc1OC (stereo not given)
    x	x	1.9%	1.2%	-4.6%	-7.5%	x	x
- O=C(O)CC1SC(=Nc2ccccc2)N(c2ccccc2)C1=O (stereo not given)
    0.3%	1.7%	-3.5%	2.8%	7.0%	-22.0%	-0.8%	8.0%
- CCSc1nnc(-c2ccccc2N)c(=O)[nH]1
    13.2%	28.7%	-38.4%	-17.2%	-1.9%	49.1%[activator]	0.7%	-8.8%
- O=C(Nc1ccc(N2CCCC2)cc1)C(c1ccccc1)c1ccccc1
    25.0%	8.3%	17.4%	10.6%	0.4%	-24.0%	-12.1%	7.94µM*
- COc1ccc(-c2cc(=O)oc3c(C)c(OCc4nn[nH]n4)ccc23)cc1
    -10.8%	-15.6%	-0.5%	10.9%	-2.7%	6.8%	-10.2%	1.2%
- Cc1nnc(SCC(=O)Nc2ccccc2)n1CCc1ccccc1
    14.7%	-5.2%	-6.3%	-1.1%	4.2%	x	0.5%	2.2%
- Cn1c(SCC(=O)Nc2ccccc2F)nnc1C1CCCCC1
    -10.9%	-5.1%	-0.5%	0.9%	1.1%	-17.4%	x	x
- COc1ccc(-n2c(SCC(=O)Nc3cc(C)on3)nc3c([nH]c4ccccc43)c2=O)cc1
    x	-0.3%	u	0.8%	-0.5%	-23.6%	x	x
- COC(=O)C1=COC(C)C2CN3CCc4c([nH]c5cc(OC)c(OC)cc45)C3CC12 (stereo not given)
    x	x	u	-7.6%	-0.8%	-13.7%	x	x
- Cc1nc(OCC(C)C)c2sc3nc4c(cc3c2n1)COC(C)(C)C4
    -6.8%[46.1 µM]	-0.5%[46.1 µM]	7.3%	-2.5%	-0.9%	-9.7%	x	x

Structures listed so far that have an NH in an aromatic ring, in the order listed:
The line under a structure holds: LASV entry inh	Marburg entry inh	NS1 inh	RE007 growth inh	SARS PLpro yeast	StopGo reporter	Cruzain Triton	Cruzain noTriton
- CC(C)c1ccc(N=Cc2c(O)n(C3CC3)c(=S)[nH]c2=O)cc1
    11.0%	23.2%	-2.8%	-7.2%	1.0%	30.4%[activator]	x	x
- S=c1[nH]nc(Cc2ccc(Cl)cc2)o1
    -3.7%	2.0%[46.1 µM]	-49.8%	-7.0%	-4.8%	-9.6%	x	x
- O=C(Nc1ccc(Cl)c(-c2nc3ccccc3[nH]2)c1)c1cccnc1
    9.6%[14.3 µM]	u	3.9%	-1.6%	-3.9%	u	1.3%	-21.3%
- Cc1ccc(CN2CCC(c3nc4ccc(Cl)cc4[nH]3)CC2)cc1
    u	4.11µM*	-0.5%	-7.2%	0.9%	x	-0.3%	-7.4%
- CCSc1nnc(-c2ccccc2N)c(=O)[nH]1
    13.2%	28.7%	-38.4%	-17.2%	-1.9%	49.1%[activator]	0.7%	-8.8%
- COc1ccc(-c2cc(=O)oc3c(C)c(OCc4nn[nH]n4)ccc23)cc1
    -10.8%	-15.6%	-0.5%	10.9%	-2.7%	6.8%	-10.2%	1.2%
- COc1ccc(-n2c(SCC(=O)Nc3cc(C)on3)nc3c([nH]c4ccccc43)c2=O)cc1
    x	-0.3%	u	0.8%	-0.5%	-23.6%	x	x
- COC(=O)C1=COC(C)C2CN3CCc4c([nH]c5cc(OC)c(OC)cc45)C3CC12 (stereo not given)
    x	x	u	-7.6%	-0.8%	-13.7%	x	x
